# A1 inh: A1 inhibition. 21,000 tested, 0.51% active. MEF A1-2A-BIM cells, caspase-Glo luminescence, 3 h; percent of clofoctol signal, DMSO as zero. caspase activation, % (test concentration not listed). AID 2241;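 active means most replicate scores above 10, or exactly half above 10 with mean activity above 10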;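 further: effector caspase 3 and 7 activity cleaving a DEVD luciferin substrate; 50 nL library stock added to about 30 µL; numbers are from one replicate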
# BJeLR viab HTS: lowers viability of BJeLR cells; 30,000 tested, 0.64% active; viability loss activity score, % (no concentration beside the values); AID 2275; BJeLR fibroblasts viability, CellTiterGlo ATP luminescence, 48 h; HRASV12, hTERT and SV40 LT/ST transformed; in the data active means viability loss activity score above about 50%; about a fifth of its hits are not listed in these tables;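 further: higher score means fewer live cells and less ATP luminescence; stock transfer was 50 or 100 nL into about 30 µL; 0% = vehicle wells and 100% = a reference killing control; one replicate is shown; the record names a cut of 85%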
# * marks the source's active call; other numbers are inactive results; . = not tested or not shown; & = joins results of further samples. Not all compounds are listed (hit frequency here may not be typical).
# Under each structure: A1 inh	BJeLR viab HTS
- CCOc1cc(CN2CCN(C(=O)COc3ccc(C)cc3)CC2)ccc1OC
 : 0.1	-2.8
- CCOC(=O)C1=C(C)N(C)C2(C)CC1c1ccccc1O2 (centres undefined)
 : -0.3	-1.8
- N#CC(C#N)=NNc1ccc(OC(F)(F)F)cc1
 : -3.3	86*
- c1cncc(C2Nc3ccccc3-n3cccc32)c1 (centres undefined)
 : 0.0	-3.0
- CCOc1ccc(C(=O)OC2CC3CCC(C2)N3C)cc1 (centres undefined)
 : 0.0	-4.0
- C/C=C1/CN2C3Cc4c([nH]c5ccc(O)cc45)C2(O)CC1C3CO (centres undefined)
 : -0.2	3.0
- N#Cc1c(Cl)cccc1Cl
 : 0.3	-3.3
- C[C@@H]1O[C@@H](O[C@@H]2C=C3CCC4C(CC[C@]5(C)[C@@H](c6ccc(=O)oc6)CC[C@]45O)[C@@]3(C)CC2)[C@H](O)[C@H](O)[C@H]1O (some centres undefined)
 : 0.7	121*
- CCC1(c2cccc(O)c2)CCCCN(C)C1 (centres undefined)
 : 0.4	1.4
- CN1CCc2nc3sc(C(=O)C(C)(C)C)c(N)c3cc2C1
 : 0.0	-2.8
- NC(=O)CS(=O)C(c1ccccc1)c1ccccc1 (centres undefined)
 : 0.0	4.1
- CC(C)(O)c1cc(O)c2c(c1)CCC1C(C)(C(=O)O)CCCC21C (centres undefined)
 : 0.0	-1.2
- CC1=CC2/C=C(\C)CCC(O)C(O)/C=C/C(=O)C23C(=O)NC(CC(C)C)C3C1C (centres undefined)
 : 77*	96*
- C[C@]12CC[C@H](O)C[C@H]1CCC1C2CC[C@]2(C)[C@@H](C3=CC(=O)OC3)[C@@H](O)C[C@]12O (some centres undefined)
 : 0.3	30
- COc1ccc2c(c1)[C@]13CCCC[C@@H]1[C@H](C2)N(C)CC3
 : -0.1	-1.1

# 4 of the compounds above, as labelled records:
c1cncc(C2Nc3ccccc3-n3cccc32)c1 (centres undefined)
  A1 inh: 0.0
  BJeLR viab HTS: -3.0
CCOc1ccc(C(=O)OC2CC3CCC(C2)N3C)cc1 (centres undefined)
  A1 inh: 0.0
  BJeLR viab HTS: -4.0
C/C=C1/CN2C3Cc4c([nH]c5ccc(O)cc45)C2(O)CC1C3CO (centres undefined)
  A1 inh: -0.2
  BJeLR viab HTS: 3.0
N#Cc1c(Cl)cccc1Cl
  A1 inh: 0.3
  BJeLR viab HTS: -3.3

# Following part
# Under each structure: A1 inh	BJeLR viab HTS
- COc1nc(NC(C)C)nc(NC(C)C)n1
 : 0.6	-0.4
- COC(=O)C1C2c3ccccc3C(c3ccccc32)C1C(=O)OC (centres undefined)
 : 0.3	-1.0
- Cn1c(=O)c2c(ncn2CCCl)n(C)c1=O
 : -0.1	0.0
- CCOC(=O)c1c(C)n(Cc2ccccc2)c2ccc(OC(C)=O)cc12
 : -1.4	-2.5
- CO[C@H]1C[C@H](OC2CCC3(C)C4CCC5(C)C(C6=CC(=O)OC6)CC(OC(C)=O)C5(O)C4CC[C@H]3C2)O[C@@H](C)[C@@H]1O (some centres undefined)
 : -0.2	99*
- CCCCC/C=C\C/C=C\C/C=C\C/C=C\CCCC(=O)NCC(=O)O
 : -1.0	3.3
- CCOC(=O)c1c(NC(=O)C2C(C)(C)C2(C)C)sc2c1CCC2
 : -0.5	-1.0
- CCOC(=O)c1cc(C(C)(C)C)nc(OC(=O)N(C)C)c1C#N
 : -0.4	0.0
- C[C@@H]1CN(C2CCC(C#N)(c3ccc(F)cc3)CC2)CC[C@]1(C(=O)O)c1ccccc1 (some centres undefined)
 : 0.7	-3.7
- CC[C@@]1(O)C(=O)OCc2c1cc1n(c2=O)-c2cc3ccccc3nc2C1
 : 0.5	121*
- CCOC(=O)c1c(C)n(Cc2ccccc2)c2ccc(OCC(O)CNC(C)(C)C)cc12 (centres undefined)
 : -0.5	4.4
- N#Cc1cc2c(nc1SCc1ccccc1Br)C1CCN2CC1
 : .	2.1
- CC1N=C(c2ccccc2)c2ccccc2N(CCCOc2ccc(F)cc2)C1=O (centres undefined)
 : -0.7	-3.7
- CCn1cnc2c(Nc3cccc(Cl)c3)nc(N[C@@H]3CCCC[C@@H]3N)nc21
 : 26*	57*
- COc1ccc(CC2c3cc(OC)c(OC)cc3CCN2C)cc1OC (centres undefined)
 : -0.5	-6.7
- C=CCN1CC[C@]23c4c5ccc(O)c4OC2C(=O)CC[C@@]3(O)[C@H]1C5 (some centres undefined)
 : -0.4	-4.2
- FC(F)(F)c1ccc2c(c1)N(CCCN1CCN(CCCl)CC1)c1ccccc1S2
 : 5.1	3.5
- CC(C)Sc1nnc(OC(=O)N(C)C)n1-c1cccc(C(F)(F)F)c1
 : 0.4	-5.8
- C[C@@H]1O[C@@H](OC2CCC3(C)C4CCC5(C)C(C6=CC(=O)OC6)CCC5(O)C4CC[C@H]3C2)[C@H](O)[C@H](O)[C@H]1O (some centres undefined)
 : 0.4	101*
- C=C1[C@@H](C)[C@H]2[C@H](Cc3ccccc3)NC(=O)[C@]23OC(=O)/C=C\[C@H](O)CCC[C@@H](C)C/C=C/[C@H]3[C@@H]1O
 : 30*	39
- CC(C)[C@@]1(NC(=O)[C@@H]2C[C@@H]3c4cccc5[nH]cc(c45)C[C@H]3N(C)C2)O[C@@]2(O)[C@@H]3CCCN3C(=O)[C@H](Cc3ccccc3)N2C1=O
 : -0.4	2.4
- C=C(C)Cc1c(C)nc(SCC(=O)c2ccc(Cl)cc2)nc1OC(=O)N(C)C
 : -0.2	-1.9
- COc1ccccc1CN1CCN(Cc2ccccc2)CC1
 : 0.0	1.7
- Cc1c(C(=O)Nc2ccccc2)cc(-c2ccccc2)n1CCCN1CCOCC1
 : 0.7	1.5
- Cc1ccccc1NC1=NCC(C)(C)S1
 : 0.8	0.4
- CCCS(=O)(=O)N1CCC(C(=O)N2CCC3(CC2)OCCO3)CC1
 : -0.2	-2.5
- CC1(C)C(C(=O)N2CCN(c3ccc(Cl)cc3)CC2)C1(C)C
 : 0.6	-2.8
- COC(=O)[C@@]12C(=O)C(C)C(=O)[C@]1(C)C(C)=C[C@H]1[C@]3(C)CC[C@H](OC(C)=O)C(C)(C)[C@H]3CC[C@@]12C (some centres undefined)
 : 0.4	-4.7
- CC12CC[C@H]3C(CCC4(O)CC(O)CCC34O)C1(O)CCC2C1=CC(=O)OC1 (some centres undefined)
 : -0.3	3.4
- CCCCc1ccc(C(=O)O)nc1
 : 0.0	-4.8
- CCCCOC(=O)c1ccccc1C(=O)OCCCC
 : 2.0	-2.4
- CCOC(=O)C1=NN(c2ccc(C)cc2)C2c3cccc4cccc(c34)C12 (centres undefined)
 : -0.8	-1.7
- O=C1c2ccccc2-c2cccc3cccc1c23
 : -0.3	74*
- N#Cc1nn(-c2c(Cl)cc(C(F)(F)F)cc2Cl)c(N)c1S(=O)C(F)(F)F (centres undefined)
 : -1.0	0.3
- O=C(CCCN1CCC(n2c(=O)[nH]c3ccccc32)CC1)c1ccc(F)cc1
 : -0.1	0.2
- Cc1cc(OCC(=O)N(C)C)c2c3c(c(=O)oc2c1)CCCC3
 : -0.2	-8.4
- OCC1OC(n2cnc3cc(Cl)c(Cl)cc32)[C@@H](O)[C@H]1O (some centres undefined)
 : 1.8	4.8
- Clc1cccc(SC2CCNCC2)n1
 : -1.0	2.4
- CCC(C)N=Cc1c(O)[nH]c(=O)[nH]c1=O (centres undefined)
 : 0.1	-1.8
- O=c1cccc2n1CC1CNC[C@H]2C1
 : 1.2	2.6
- CN1CCc2cc(O)cc3c2[C@H]1Cc1ccc(O)c(O)c1-3
 : 0.1	-8.9
- COc1ccc(C[C@H]2NC[C@H](O)[C@H]2OC(C)=O)cc1
 : 13*	117*
- CC(NC(C)(C)C)C(=O)c1cccc(Cl)c1 (centres undefined)
 : 0.1	-6.6
- CCNC(=O)[C@H]1O[C@@H](n2cnc3c(N)ncnc32)C(O)[C@H]1O (some centres undefined)
 : -0.6	-2.6
- CCN(CC)C(=O)c1ccc(N(Cc2ccccc2Cl)S(C)(=O)=O)cc1
 : -0.6	5.5

# Random excerpt: 2 records from the list.
# Under each structure: A1 inh	BJeLR viab HTS
- O=C(CCCN1CCC(n2c(=O)[nH]c3ccccc32)CC1)c1ccc(F)cc1
 : -0.1	0.2
- CCN(CC)C(=O)c1ccc(N(Cc2ccccc2Cl)S(C)(=O)=O)cc1
 : -0.6	5.5

# Next part:
# Under each structure: A1 inh	BJeLR viab HTS
- CN1CC=C(c2noc(CCC(=O)Nc3ccc(F)cc3F)n2)CC1
 : 0.2	2.0
- CCc1ccc(CN2CCN(Cc3ccc(CC)cc3)CC2)cc1
 : 0.2	3.7
- CC1OC(n2cnc3c(N)ncnc32)C[C@H]1O (some centres undefined)
 : -0.7	1.8
- CCCCC/C=C\C/C=C\C/C=C\C/C=C\CCCC(=O)NCCO
 : 0.9	-2.9
- CCCCCc1cc(O)c2c(c1)OC(C)(C)[C@@H]1CCC(C(=O)O)=CC21 (some centres undefined)
 : -1.4	-0.1
- c1ccc2c(CNCCc3c[nH]c4ccccc34)cccc2c1
 : -0.1	9.1
- O=C(c1noc2c1COc1ccccc1-2)N1CCC2(CC1)OCCO2
 : -6.4	42
- O=C(CCl)c1cc(Br)c(Br)s1
 : 3.7	35
- CC1CCC(C(=O)NC(C(=O)N2CCC3(CC2)OCCO3)C(C)C)CC1 (centres undefined)
 : .	0.4
- COc1c(CC=C(C)C)c2c(c3oc(=O)c(-c4ccc(O)cc4)c(O)c13)C=CC(C)(C)O2
 : -0.2	-7.5
- CSc1ncccc1C1=N/C(=C\N(C)C)C(=O)O1
 : 1.3	-5.0
- C=CC(C)(C)c1cc2cc3c(cc2oc1=O)O[C@H](C(C)(C)O)C3
 : -1.0	7.4
- O=C(c1ccccc1)C12CN3CN(CN(C3)C1)C2
 : -0.1	8.0
- c1ccc2c(c1)[I+]c1ccccc1-2
 : -0.7	73*
- COC1CC(OC2C(C)OC(OC3C(C)OC(OC4C(C)OC(O[C@H]5CC[C@@]6(C)C(=CC[C@]7(O)C6CC(OC(=O)c6ccccc6)[C@@]6(C)[C@]7(O)CC[C@@]6(O)C(C)=O)C5)CC4OC)CC3OC)CC2OC)OC(C)C1O (some centres undefined)
 : 0.0	75*
- CC(C)(O)[C@H]1O[C@H]2CC[C@@]3(C)[C@@](O)(CC[C@H]4Cc5c([nH]c6ccccc56)[C@@]43C)C2=CC1=O
 : 0.5	-6.9
- C[C@H](N)C(=O)N[C@@H](C)C(=O)N[C@@H](Cc1ccccc1)C(=O)CCl
 : -2.1	-2.4
- COc1cc2c(cc1OC)C(C)NCC2 (centres undefined)
 : 0.0&0.4	5.9&6.6
- CCN(CC)C(=O)N[C@@H]1C[C@@H]2c3cccc4[nH]cc(c34)C[C@H]2N(C)C1
 : -0.1	-1.4
- O=c1ccc2c(O)c3ccoc3cc2o1
 : -0.4	-3.8
- COc1cc2c(cc1OC)C13CCN(C)CC4=CCOC5CC(=O)N2C1C5C4CC3=O (centres undefined)
 : 0.5	4.3
- CC(C)CCCn1c(O)c(/C=C2\C=CC=N2)c(=O)[nH]c1=O
 : 1.8	-0.4
- c1cncc(C2=NCCC2)c1
 : 0.6	21
- CC(O)CN1CC2CC(C1)c1cccc(=O)n1C2 (centres undefined)
 : 0.7	-1.5
- CN1CC[C@@H]2CN3CCc4cccc(c43)[C@@H]2C1
 : 1.2	-1.1
- N#CC(C#N)=Cc1cc(O)c(O)c(O)c1
 : -1.0	1.1
- C=C(C)[C@@H]1C2C(=O)O[C@H]1[C@H]1OC(=O)[C@@]34OC3C[C@]2(O)[C@@]14C (some centres undefined)
 : -0.8	2.7
- Oc1ccc(C2(c3ccc(O)cc3)CCCCC2)cc1
 : -0.2	2.7
- C[C@H]1CC[C@@H]2[C@@H](C)[C@H]3[C@H](C[C@H]4[C@@H]5CC=C6CC(O[C@@H]7O[C@H](CO)[C@@H](O)[C@H](O[C@@H]8O[C@H](CO)[C@@H](O)[C@H](O)[C@H]8O)[C@@H]7O[C@@H]7O[C@@H](C)[C@H](O)[C@@H](O)[C@H]7O)CC[C@]6(C)[C@H]5CC[C@]34C)N2C1 (some centres undefined)
 : -1.9	81*
- N[C@H]1C[C@@H]1c1ccccc1
 : -0.5	-1.4
- O=C1C=C2C=C[C@@H]3C[C@@]2(O1)[C@H]1CCCCN31
 : 0.3	-1.9
- CN1Cc2c(ccc3c2OCO3)[C@@H]2[C@H]1c1cc3c(cc1C[C@@H]2O)OCO3
 : 1.9	41
- O=C1C=C2C=C[C@@H]3CC2(O1)[C@H]1CCCCN31
 : 0.0	-3.6
- O=C1NCN(c2ccccc2)C12CCN(CC1COc3ccccc3O1)CC2 (centres undefined)
 : -0.6	-2.5
- C=CC/C=C\C/C=C\CCCCCCCc1cc(O)cc(O)c1
 : -0.2	.
- NCC(=O)c1ccccc1
 : 0.2	-4.9
- Cc1cccc(C)c1NC1=NCCS1
 : -0.5	10
- CCCC(=O)O[C@@H]1[C@@H](C)[C@@]2(O)[C@@H](C=C(CO)C[C@]3(O)C(=O)C(C)=C[C@@H]23)[C@@H]2C(C)(C)[C@]12OC(=O)CCC
 : -1.8	4.6
- CCN(CC)P1(=O)OC(C)(C)CC1(C)O (centres undefined)
 : -0.1	1.2
- COc1cc2c(cc1O)C[C@H]1c3c(cc(O)c(OC)c3-2)CCN1C
 : 0.6	-8.4
- C[C@]12CC[C@H](O)C[C@H]1CC[C@@H]1[C@@H]2C[C@@H](O)[C@]2(C)[C@@H](C3=CC(=O)OC3)CC[C@]12O
 : -0.3	83*
- C=C1[C@@H](C)[C@H]2[C@H](Cc3ccccc3)NC(=O)[C@]23[C@H](OC(C)=O)C=C[C@](C)(O)C(=O)[C@@H](C)C/C=C/[C@H]3[C@@H]1O
 : 16*	20
- Cn1c2c(c3ccccc31)CCNCC2
 : -0.6	-2.4

# Screening data (PubChem BioAssay)
